Vaccinia stage: blocks a specific stage of Vaccinia orthopoxvirus infection, primary screen, cell-based, single point | Vaccinia-infected cells, mCherry/Venus stage reporter fluorescence; hits give low values; some inactives read as strong as hits | activity change (mCherry), % (no concentration beside the values) | 89,000 tested, 0.01% active | AID 1053133, 2014;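 active = mCherry past -33% and 40 or more points under the early reporter, replicates agreeing; inconclusive = past -33% without that gap or agreement; tested in A549 cells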;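 note: scaled between vehicle wells and reference inhibitor wells; 23 nL library stock went into each well; one replicate is shown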
Vaccinia stage Venus: second read-out of Vaccinia stage, no call of its own (marks repeat the call); activity change (Venus), %; measured here: Venus reporter, other viral stage;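 negative = less Venus signal; first of two replicates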
An asterisk follows results filed as active; ? = inconclusive; / = no result given; & = joins results of further samples. These rows are one share of the data; the hit share may differ from the screen's.

SMILES	Vaccinia stage	Vaccinia stage Venus
CCCC(=O)Nc1ccc2c(c1)OC[C@H](C)N(Cc1ccccc1)C[C@@H](C)[C@@H](OC)CN(C)C2=O	15	1
C[C@H](CO)N1C[C@H](C)[C@H](CN(C)CC2CC2)Oc2ccc(NC(=O)Cc3cn(C)c4ccccc34)cc2C1=O	3	4
CO[C@H]1CN(C)C(=O)c2ccc(NC(=O)C3CC3)cc2OC[C@@H](C)N(C(=O)CN(C)C)C[C@H]1C	7	2
C[C@@H]1CN([C@@H](C)CO)C(=O)c2cc(NC(=O)CCCCCC(=O)Nc3ccccc3N)ccc2O[C@H]1CN(C)Cc1ccc(C(F)(F)F)cc1	?	/
C[C@@H]1CN([C@@H](C)CO)S(=O)(=O)c2ccc(C#Cc3ccncc3)cc2O[C@@H]1CN(C)CC1CC1	0	2
CCC(=O)N[C@@H]1CC[C@H](CC(=O)OC)O[C@H]1CO	8	5
COc1ccc(CN(C)C[C@@H]2Oc3ccc(NS(=O)(=O)c4cccs4)cc3CC(=O)N([C@@H](C)CO)C[C@H]2C)cc1	-18	-17
CNC[C@H]1Oc2cc(C#CCOC)ccc2S(=O)(=O)N([C@@H](C)CO)C[C@H]1C	13	16
CCNC(=O)C[C@@H]1CC[C@H]2[C@@H](COC[C@H](O)CN2C(=O)Nc2c(C)noc2C)O1	7	3
COc1ccc(-c2cnc3c(c2)C(=O)N([C@H](C)CO)C[C@H](C)[C@H](CN(C)C)O3)cc1	10&7	9&-1
N#C[C@@H]1[C@H](c2ccc(C3=CCCCC3)cc2)[C@H](CO)N1C(=O)NC1CCCCC1	?	/
COCC#Cc1ccc2c(c1)O[C@@H](CN(C)Cc1ccccc1F)[C@@H](C)CN([C@@H](C)CO)S2(=O)=O	-7	-11
C[C@@H]1CCCCO[C@H](CN(C)C(=O)CCC(F)(F)F)[C@H](C)CN([C@@H](C)CO)C(=O)c2cc(NS(=O)(=O)c3ccc(Cl)cc3)ccc2O1	?	/
C[C@@H]1CCCCO[C@@H](CN(C)Cc2ccc3c(c2)OCO3)[C@H](C)CN([C@@H](C)CO)C(=O)c2cc(NC(=O)C3CCCCC3)ccc2O1	?	/
C[C@H](CO)N1C[C@H](C)[C@H](CN(C)C(=O)Nc2ccc(F)cc2)OCCCC[C@H](C)Oc2ccc(NS(C)(=O)=O)cc2C1=O	16	3
CS(=O)(=O)Nc1ccc2c(c1)[C@@H]1C[C@H](CC(=O)NCc3cccnc3)O[C@H](CO)[C@@H]1O2	3	0
C[C@H](CO)N1C[C@H](C)[C@@H](CN(C)Cc2ccc3c(c2)OCCN3C)OCc2cn(nn2)CCCC1=O	2	5
CCCNC(=O)N1CC2(C1)[C@@H](c1ccccc1)[C@@H](CO)N2C(=O)C1CC1	5	8
CCC(=O)N(C)C[C@H]1Oc2ncc(C#CCC(C)C)cc2C(=O)N([C@H](C)CO)C[C@@H]1C	11	7
C[C@@H]1CN([C@H](C)CO)C(=O)Cc2cc(NC(=O)Cn3cnnn3)ccc2O[C@H]1CN(C)Cc1ccc(Cl)c(Cl)c1	5	5
C[C@@H]1CCCCO[C@@H](CN(C)S(=O)(=O)c2cn(C)cn2)[C@@H](C)CN([C@@H](C)CO)C(=O)c2cc(NC(=O)Nc3ccccc3)ccc2O1	21	14
Cc1ccc(S(=O)(=O)N(C)C[C@@H]2Oc3ccc(NC(=O)Nc4ccc(F)cc4)cc3CC(=O)N([C@@H](C)CO)C[C@H]2C)cc1	-9	-5
Cc1ccc(S(=O)(=O)Nc2ccc3c(c2)C(=O)N([C@H](C)CO)C[C@H](C)[C@H](CN(C)C(=O)CCCN(C)C)OCCCC[C@@H](C)O3)cc1	-1	-11
C[C@H]1CN([C@@H](C)CO)C(=O)c2cccc(NC(=O)NC3CCCCC3)c2O[C@H]1CN(C)Cc1ccc(C(=O)Nc2ccccc2N)cc1	15	7
COc1ccc(S(=O)(=O)N(C)C[C@H]2Oc3c(NS(=O)(=O)c4c(C)noc4C)cccc3C(=O)N([C@@H](C)CO)C[C@H]2C)cc1	-3	2
C[C@@H]1CN([C@@H](C)CO)C(=O)c2cccc(NC(=O)c3nc4ccccc4s3)c2O[C@@H]1CN(C)C(=O)Nc1ccc2c(c1)OCO2	-3	-14
CN(C)C(=O)c1cccc(-c2ccc([C@@H]3[C@@H](CO)N(C(=O)C4CCC4)[C@H]3C#N)cc2)c1	-3	-1
C[C@H]1CN([C@@H](C)CO)C(=O)c2cccc(NC(=O)c3ccncc3)c2O[C@H]1CN(C)CC1CC1	13	4
C[C@@H]1CN([C@@H](C)CO)C(=O)c2cc(NS(=O)(=O)c3ccccc3)ccc2O[C@@H](C)CCCCO[C@H]1CN(C)C(=O)c1ccccc1	12	2
Cc1noc(C)c1S(=O)(=O)Nc1ccc2c(c1)C(=O)N([C@H](C)CO)C[C@H](C)[C@@H](CN(C)C)OCCCC[C@H](C)O2	29	14
C[C@@H]1CN([C@@H](C)CO)S(=O)(=O)c2ccc(C#CCN(C)C)cc2O[C@@H]1CN(C)C(=O)CC1CC1	13	18
O=C(C1=C[C@@H](C2CC2)C[C@@H](OCc2ccc(CO)cc2)O1)N1CCN(Cc2ccccc2)CC1	5	-5
COc1ccc2c3c([nH]c2c1)[C@@H](CO)N(C(C)=O)CC31CCN(C(=O)CN2CCOCC2)CC1	13	-1
CCCN(C)C[C@H]1Oc2cc(C#CCN(C)C)ccc2S(=O)(=O)N([C@H](C)CO)C[C@H]1C	5	4
CN(C)C(=O)c1cccc(-c2ccc([C@@H]3[C@@H](C#N)N(C(=O)C4CCCCC4)[C@@H]3CO)cc2)c1	7	-2
CCCNC(=O)N1C[C@@H](C)[C@@H](OC)CN(C)C(=O)c2ccc(NS(C)(=O)=O)cc2OC[C@@H]1C	-6	9
COC(=O)CCCCCCC(=O)Nc1ccc(C2OC(CSc3nc4ccccc4s3)CC(c3ccccc3)O2)cc1 (stereo unspecified)	11	14
C[C@H]1CCCCO[C@H](CN(C)C(=O)Cc2ccccc2)[C@@H](C)CN([C@@H](C)CO)C(=O)c2cc(NC(=O)c3ccccc3)ccc2O1	?	/
CCS(=O)(=O)N1CC2(C1)CN(S(=O)(=O)c1cn(C)cn1)[C@H](CO)c1[nH]c3cc(OC)ccc3c12	19	2
COc1ccc(-c2ccc(C3[C@@H]4CN(C(=O)Nc5ccccc5F)C[C@H]3N4)cc2)cc1 (stereo partly specified)	?	/
CC(C)NC(=O)N(C)C[C@@H]1Oc2c(NS(=O)(=O)c3ccc(Cl)cc3)cccc2C(=O)N([C@@H](C)CO)C[C@H]1C	-1	1
CC(C)C#Cc1ccc([C@@H]2[C@@H](CO)N(C(=O)CN(C)C)[C@H]2C#N)cc1	3	2
CN1C(=O)c2cc(NC(=O)NC3CCCC3)ccc2OC[C@H]2O[C@H](CC(=O)O)CC[C@@H]21	-10	-2
COc1ccc(S(=O)(=O)Nc2cccc3c2O[C@H](CN(C)C(=O)Nc2ccc(C(F)(F)F)cc2)[C@H](C)CN([C@H](C)CO)C3=O)cc1	-20	-5
N#C[C@@H]1N[C@@H](CO)[C@H]1c1ccc(-c2cccc(F)c2)cc1	-6	-3
O=C(c1cnccn1)N1CC(=O)N2[C@H](CO)[C@@H](c3ccc(-c4ccccc4)cc3)[C@H]2C1	-33	-24
COc1ccc2c3c(n(C)c2c1)[C@H](CO)N(C(=O)c1ccccc1)CC31CCN(C(C)=O)CC1	0	-9
O=C(N[C@H]1CC[C@@H](CCNS(=O)(=O)c2ccccc2Cl)O[C@@H]1CO)c1ccccc1	-3	-5
CCCNC(=O)N1[C@H](CO)[C@H](c2ccc(-c3ccccc3F)cc2)[C@@H]1C#N	-10	-2
O=S(=O)(N[C@@H]1CCCN(Cc2cccc(OCCO)c2)C1)c1ccc2ccccc2c1	-16	-7
COCC(=O)N(C)C[C@H]1Oc2ncc(-c3ccccc3F)cc2C(=O)N([C@H](C)CO)C[C@H]1C	4	4
C[C@H]1CN([C@@H](C)CO)C(=O)Cc2cc(NC(=O)Cc3ccccc3)ccc2O[C@H]1CN(C)Cc1ccc(C(=O)O)cc1	-4	14
C[C@H]1CCCCO[C@H](CN(C)C(=O)Nc2ccc(C(F)(F)F)cc2)[C@@H](C)CN([C@@H](C)CO)C(=O)c2cc(NC(=O)Nc3ccc(F)cc3)ccc2O1	-10	4
O=C(c1ccc2c(c1)OCO2)N1C[C@H]2[C@@H](c3ccccc31)[C@@H](CO)N2C(=O)CC1CC1	2	2
CCC(=O)N(C)C[C@H]1Oc2ncc(-c3ccc(C)cc3)cc2C(=O)N([C@@H](C)CO)C[C@@H]1C	-22	-15
COc1ccc(S(=O)(=O)Nc2ccc3c(c2)CC(=O)N([C@H](C)CO)C[C@@H](C)[C@H](CN(C)S(=O)(=O)c2ccc(C)cc2)O3)cc1	15	11
O=C(O)C[C@H]1C[C@@H]2c3cc(NS(=O)(=O)c4ccc(F)cc4)ccc3O[C@@H]2[C@H](CO)O1	16	18
C[C@@H]1CN([C@H](C)CO)S(=O)(=O)c2ccc(-c3ccccc3)cc2O[C@@H]1CN(C)Cc1ccncc1	-20	-21
C[C@H]1CN([C@@H](C)CO)C(=O)Cc2cc(NS(=O)(=O)c3cccs3)ccc2O[C@H]1CN(C)Cc1ccc(Oc2ccccc2)cc1	?	/
C[C@@H]1CN([C@@H](C)CO)S(=O)(=O)c2ccc(C3=CCCC3)cc2O[C@H]1CN(C)C(=O)c1ccncc1	27	21

Given with each value named: entries from further up.
O=C(N[C@H]1CC[C@@H](CCNS(=O)(=O)c2ccccc2Cl)O[C@@H]1CO)c1ccccc1
  Vaccinia stage: -3; Vaccinia stage Venus: -5
CCCNC(=O)N1[C@H](CO)[C@H](c2ccc(-c3ccccc3F)cc2)[C@@H]1C#N
  Vaccinia stage: -10; Vaccinia stage Venus: -2
O=S(=O)(N[C@@H]1CCCN(Cc2cccc(OCCO)c2)C1)c1ccc2ccccc2c1
  Vaccinia stage: -16; Vaccinia stage Venus: -7
COCC(=O)N(C)C[C@H]1Oc2ncc(-c3ccccc3F)cc2C(=O)N([C@H](C)CO)C[C@H]1C
  Vaccinia stage: 4; Vaccinia stage Venus: 4

The list continues:
SMILES	Vaccinia stage	Vaccinia stage Venus
Cc1cccc(S(=O)(=O)N2C[C@@H]3[C@H](c4ccccc42)[C@H](CO)N3Cc2ccc3c(c2)OCO3)c1	8	-5
CC(C)NC(=O)N(C)C[C@@H]1Oc2ccc(NC(=O)c3ccncc3)cc2CC(=O)N([C@H](C)CO)C[C@H]1C	26	17
CC(C)NC(=O)N(C)C[C@H]1Oc2cc(C3=CCCCC3)ccc2S(=O)(=O)N([C@@H](C)CO)C[C@H]1C	-20	-11
CN(C)C(=O)C[C@@H]1C[C@H]2c3cc(NC(=O)Nc4ccccc4F)ccc3O[C@H]2[C@@H](CO)O1	3	3
C[C@H]1CN([C@@H](C)CO)C(=O)c2cc(C#Cc3ccc(F)cc3)cnc2O[C@@H]1CN(C)C	-22	-28
CO[C@H]1CN(C)C(=O)c2cc(NC(C)=O)ccc2OC[C@@H](C)N(C(=O)c2ccccc2F)C[C@@H]1C	-11	-12
Cc1noc(C)c1NC(=O)NCC[C@H]1CC[C@H](NC(=O)c2ccncc2)[C@@H](CO)O1	-6	5
O=C(c1ccncc1)N1C[C@H]2[C@@H](c3ccccc31)[C@H](CO)N2C(=O)c1ccccn1	11	3
Cc1ccc(S(=O)(=O)N[C@H]2CC[C@@H](CCn3cc(-c4ccccc4F)nn3)O[C@H]2CO)cc1	-12	-7
COCCNC(=O)C[C@@H]1CC[C@@H]2[C@@H](COc3ccc(NC(=O)Nc4ccccc4)cc3C(=O)N2C)O1	3	-9
COc1ccc(-c2cn(CC[C@@H]3CC[C@H](NC(=O)c4cnccn4)[C@H](CO)O3)nn2)cc1	-3	-2
C[C@@H]1CN([C@@H](C)CO)C(=O)c2cccc(NS(=O)(=O)c3ccc(F)cc3)c2O[C@@H]1CN(C)Cc1ccc(Cl)c(Cl)c1	-13	-7
COc1ccc(S(=O)(=O)N[C@@H]2CC[C@H](CC(=O)NCCc3ccncc3)O[C@H]2CO)cc1	24	14
C[C@H]1CN([C@@H](C)CO)C(=O)Cc2cc(NS(C)(=O)=O)ccc2O[C@H]1CN(C)Cc1ccc(Cl)c(Cl)c1	?	/
C[C@H](CO)N1C[C@H](C)[C@@H](CN(C)Cc2ccc(C(=O)Nc3ccccc3N)cc2)Oc2c(NC(=O)C3CC3)cccc2C1=O	1	3
CC(C)NC(=O)Nc1ccc2c(c1)C(=O)N([C@@H](C)CO)C[C@@H](C)[C@H](CN(C)Cc1ccc3c(c1)OCO3)O2	8	6

A stretch from further up, for reference:
SMILES	Vaccinia stage	Vaccinia stage Venus
C[C@H](CO)N1C[C@H](C)[C@@H](CN(C)Cc2ccc(C(=O)Nc3ccccc3N)cc2)Oc2c(NC(=O)C3CC3)cccc2C1=O	1	3
CC(C)NC(=O)Nc1ccc2c(c1)C(=O)N([C@@H](C)CO)C[C@@H](C)[C@H](CN(C)Cc1ccc3c(c1)OCO3)O2	8	6

High-throughput results deposited in PubChem by Broad Institute.
